2A Renilla: FMDV 2A StopGo reporter, Renilla signal; HEK cells with a luciferase reporter of 2A StopGo recoding; Potency, µM (highest dose often 57.5 µM), inactives show at the highest dose signal change, negative = less light; 120,000 tested, 0.32% active; AID 1745857; active means well fitted falling curve with a large enough effect; inconclusive means small, poorly fitted or top-dose-only effect; inactive means no such curve, though single readings can be large or run the other way; further: nearly all actives have a fitted effect of over 55% in size; overnight with compound
2A firefly: FMDV 2A StopGo reporter, firefly signal | HEK cells with a luciferase reporter of 2A StopGo recoding | Potency, µM (series often up to 57.5 µM), for inactives: top-dose signal change, negative = less light | 120,000 tested, 0.23% active; active = well fitted falling curve with a large enough effect; inconclusive = small, poorly fitted or top-dose-only effect; inactive = no such curve, though single readings can be large or run the other way; further: nearly all actives have a fitted effect of over 60% in size; overnight with compound
The depositor's hits bear a star; ? = inconclusive; [ ] = dose if it differs, or a comment. On the % scale 0 is the no-effect control and ±100 the full control effect; potency means the concentration at half of the fitted maximal effect.

SMILES | 2A firefly | 2A Renilla
S=c1n(/N=C/c2ccc(Br)cc2)cnn1Cc1ccccc1Cl | 0.0% | 7.9%
COc1ccc2c(C)c(CCC(=O)N3CCN(C(C)=O)CC3)c(=O)oc2c1 | 16.4% | 12.8%
Cc1nc2cc(NC(C)C(=O)Nc3ccccc3F)ccc2o1 (stereo not given) | 84.5%[activator] | 32.6%[activator]
CCCn1c(=N)c(C(=O)NCC2CCCO2)cc2c(=O)n3cc(C)ccc3nc21 (stereo not given) | -9.9% | -18.2%
CCCc1cc(N2CCN(c3cc(Cl)ccc3C)CC2)n2cnnc2n1 | 0.0% | 104.9%[activator]
Cc1ccc(NC(=O)CSc2nc3c(=O)[nH]cnc3n2CC2CCCO2)c(Cl)c1 (stereo not given) | -2.7% | -6.2%
CCc1ccc(C2=CC(c3cccc(Br)c3)n3nnnc3N2)cc1 (stereo not given) | 3.7% | 6.8%
S=c1cc[nH]c(=S)[nH]1 | 13.5% | 12.7%
CCOC(=O)c1ccccc1NC(=O)CCOc1ccccc1 | 2.9% | -9.0%
O=C1CCCC(=O)C1C(c1ccccc1)C1C(=O)CCCC1=O | 0.8% | 10.5%
Oc1c(Cl)cc(Cl)c(Cl)c1Sc1c(O)c(Cl)cc(Cl)c1Cl | ? | ?
CC(C)c1ccc(OCC(=O)N2CCN(CCc3ccccn3)CC2)cc1 | 4.0% | -10.3%
Cc1c(Cl)cccc1-n1ncc(C(=O)N2CCOCC2)c1C1CCN(C(=O)OC(C)(C)C)CC1 | -23.2% | 11.4%
CCCc1cc(=O)[nH]c(-n2nc(C)cc2NC(=O)Cc2ccccc2)n1 | ? | ?
COc1ccc(C(=O)Nc2cccc(C(=O)OCc3cc(=O)n4c5c(sc4n3)CCCC5)c2)cc1 | -7.7% | 0.8%
Cc1cc(C)c(C(=O)C(C)OC(=O)c2ccc(CO)cc2)cc1C (stereo not given) | 14.8% | 20.6%
Cc1ccc(NC(=O)C2CC(=O)Nc3nc(C)nn32)cc1 (stereo not given) | -5.7% | -5.6%
CCC(C)(C(=O)NC1CCCCC1)N(C(=O)CNC(=O)c1ccccc1)c1ccccc1 (stereo not given) | -8.9% | 34.3%[activator]
COc1ccc(S(=O)(=O)Nc2cc(-c3cn4ccccc4n3)ccc2C)cc1 | 15.6% | 66.3%[activator]
CC(C)C(=O)Nc1ccccc1Cl | -10.5% | -0.4%
COc1cc(C(=O)Nc2cccc(OCc3cc(=O)n4cc(C)sc4n3)c2)cc(OC)c1OC | 3.8% | 9.8%
O=C(NCc1ccc(F)cc1)c1nc(Cc2c[nH]c3ccccc23)no1 | -7.5% | 11.1%
Cc1cccc(Nc2nnc(Cc3ccccc3)c(=O)[nH]2)c1 | 3.6% | 4.0%
COc1ccc(Cl)cc1NC(=O)c1nn(C)c2c1CS(=O)(=O)c1ccccc1-2 | -21.1% | -10.7%
N#Cc1c(-c2ccccc2)cc(-c2ccccc2)nc1SCC(O)CS(=O)(=O)Cc1ccccc1 (stereo not given) | 8.6% | 25.8%

Single entries from above:
Value for COc1ccc(C(=O)Nc2cccc(C(=O)OCc3cc(=O)n4c5c(sc4n3)CCCC5)c2)cc1 under 2A Renilla: 0.8%
Value for CC(C)C(=O)Nc1ccccc1Cl under 2A firefly: -10.5%

Continued.
SMILES | 2A firefly | 2A Renilla
CC(NC(=O)c1ccc(F)cc1)C12CC3CC(CC(C3)C1)C2 (stereo not given) | -9.1% | -2.1%
COc1ccc(C)cc1NC(=O)COc1ccc(C(=O)Nn2c(C)ccc2C)cc1 | -7.2% | 6.9%
O=C(O)Cc1ccccc1 | -14.9% | -9.5%
Cc1c2cnn(-c3ccccc3)c(=O)c2c(C)n1CC(=O)NCc1ccc(Cl)cc1 | -14.6% | -4.7%
Cc1ccc(-c2csc3ncn(CC(=O)NC4CCCc5ccccc54)c(=O)c23)cc1 (stereo not given) | 7.8% | 7.7%
O=C(CC1CC2CCC1C2)Nc1ccc(F)cc1 (stereo not given) | 0.0% | 48.6%[activator]
O=C1CCCN1c1ccc(-c2csc(-c3cccs3)n2)cc1 | 84.1%[activator] | 29.2%
COc1ccc(COc2ccc(C#N)cc2)c(Br)c1OC | 0.0% | 0.0%
O=C(CCS(=O)(=O)Cc1ccccc1)Nc1cc(F)cc(F)c1 | 19.9% | -1.5%
O=S(=O)(Nc1nc2ccccc2nc1Nc1cccc(F)c1)c1ccccc1 | -0.1% | -6.1%
CC(Oc1ccc(Cl)cc1)C(=O)Nc1ccc(N2CCN(C)CC2)nc1 (stereo not given) | -10.7% | -4.7%
CC(C)CC(=O)Nc1cccc(-c2cn3cccnc3n2)c1 | 101.2%[activator] | 64.5%[activator]
O=C(CC1SCCNC1=O)Nc1cc(Cl)cc(Cl)c1 (stereo not given) | 37.6%[activator] | 5.9%
N#Cc1cccc(CN2CCN(c3oc(C4CC4)nc3C#N)CC2)c1 | -4.0% | -2.5%
O=C(CCc1nc(-c2ccc(F)cc2)no1)N1CCc2sccc2C1c1cccs1 (stereo not given) | 15.7% | 17.2%
CCn1c(Br)nc2c1c(=O)[nH]c(=O)n2C | 6.4% | 1.8%
O=C(Nc1ncn(Cc2cccc(C(F)(F)F)c2)n1)c1ccn(COc2ccc(Cl)cc2)n1 | -27.8% | -32.6%
CCCNc1c(NC(=O)Nc2ccccc2C)c(=O)oc2ccccc12 | 15.8% | 3.6%
Cc1ccc(-c2cc(C(=O)NC3CC3)c3ccccc3n2)cc1 | 7.9% | -7.4%
COc1ccc(C(=O)Nc2cccc(OCc3cc(=O)n4c5c(sc4n3)CCCC5)c2)cc1 | -20.0% | -9.9%
CCOC(=O)C1CCCN(CCOc2cccc(C(F)(F)F)c2)C1 (stereo not given) | 9.2% | 4.9%
COc1cc(C2CC(=O)N(c3ccccc3)C3=C2C(=O)OC3)cc(OC)c1OC (stereo not given) | -16.0% | -20.7%
O=C(NC1CCCc2ccccc21)c1cc(Sc2cccc(Cl)c2)nc2ccccc12 (stereo not given) | 4.7% | 318.6%[activator]
Cc1c(Cl)cccc1NC(=O)CC(c1ccc(F)cc1)N1Cc2ccccc2C1=O (stereo not given) | 0.0% | 133.2%[activator]
COc1ccc(Cl)cc1-c1nc(SC(C)C(=O)NC2CCCCC2)n[nH]1 (stereo not given) | -8.2% | 4.2%
Cc1ccc2c(CN3CCN(C)CC3)cc(=O)oc2c1C | -5.0% | -15.8%
CC(=O)Nc1ccc2oc(-c3cncc(Br)c3)nc2c1 | 137.1%[activator] | 19.3%
Cc1cc(=O)[nH]c2nnc(SCc3ccc(Cl)cc3)n12 | -20.8% | -8.5%
Cc1ccc(-c2nc(CCNS(=O)(=O)c3cc(C)ccc3C)cs2)cc1 | ? | 26.1%
CCC1CCCN(C(=O)Cn2cc(Br)c(=O)[nH]c2=O)C1 (stereo not given) | 6.7% | -5.1%
Cc1ccccc1CN1CCN(C(=O)c2ccc3ccccc3n2)CC1 | 0.1% | 8.0%
O=C(Nc1cccc(C(=O)OCc2cc(=O)n3c4c(sc3n2)CCCC4)c1)c1ccc(Cl)cc1 | -29.3% | 0.0%
CC(C)(C)c1ccc(C(=O)Nc2cc(-c3ccccc3)nn2-c2ccccc2)cc1 | -11.6% | 5.6%
O=C(Cn1cc(Br)c(=O)[nH]c1=O)N1CCSCC1 | 2.8% | -7.4%
COCCCNC(=O)c1oc2c(c1C)-c1nn(Cc3ccccc3Cl)cc1CC2 | 0.4% | 4.2%
COC(=O)c1ccccc1NC(=O)CN(c1cccc(C)c1C)S(C)(=O)=O | 6.1% | 40.9%
COCc1nn2c(=O)c(NC(=O)c3ccccc3Cl)cnc2s1 | 3.3% | -7.2%
CCOc1ccc(NC(=O)c2cc(S(=O)(=O)NC3CCCC3)ccc2F)cc1 | -14.5% | 162.3%[activator]
c1coc(-c2cc(CSc3nnc(-c4ccncc4)o3)no2)c1 | 12.7% | 5.4%
COc1ccc(OC)c(NC(=O)COc2cccc(C)c2C)c1 | 21.9% | -2.8%
CCOc1ccccc1NC(=O)c1nn(-c2ccc(OC)cc2)c(=O)c2c1c1ccccc1n2C | 24.0% | -12.1%
Cc1nc2sc3c(c2c(-c2ccccc2)c1C(N)=O)CCCC3 | -10.2% | -8.9%
CCCCC12CN3CC(C)(CN(C1)C3c1ccc(OCc3ccccc3)cc1)C2=O (stereo not given) | -10.4% | -9.0%
O=C(OCC(F)(F)C(F)F)c1cccnc1 | -3.0% | -4.1%[1.06 µM]
O=C(c1nc(-c2cccnc2)no1)N1CCN(c2ccc(Cl)c(Cl)c2)CC1 | -7.0% | 11.8%
Cc1ccc(N(Cc2cc3ccccc3[nH]c2=O)C(=O)c2cccc(Cl)c2)cc1 | -8.3% | -4.0%
CC(=O)Nc1ccc(NC(=O)CCSCCc2ccccn2)cc1 | 22.8% | 217.3%[activator]
Cc1c(O)ccc2c(CN3CCCCC3C)cc(=O)oc12 (stereo not given) | 1.2% | -4.1%
COc1ccc(C(=O)NC(CC(=O)O)c2ccc(C(C)(C)C)cc2)cc1 (stereo not given) | 17.9% | 5.3%
CC(Sc1nc2cc(S(=O)(=O)N3CCCCC3)ccc2o1)C(=O)Nc1ccc(F)cc1Cl (stereo not given) | 32.7% | 0.0%

The listing continues.
SMILES | 2A firefly | 2A Renilla
O=C(Cn1c(=O)c2c(ncn2C2CCCC2)n(Cc2ccccc2)c1=O)N1CCNC1=O | 9.1% | -16.1%
CC(C)NC(=O)CCC1NC(=O)N(CCc2c[nH]c3ccc(F)cc23)C1=O (stereo not given) | -2.3% | -9.7%
CC(C)c1nnc(NC(=O)c2cc(=O)[nH]c3ccccc23)s1 | 0.0% | 13.7%
O=C(NCc1cccs1)c1cc(-c2cccnc2)nc2ccccc12 | 71.1%[activator] | 86.5%[activator]
Cn1cccc1-c1cc2n(n1)CCC(=O)N2CC(=O)Nc1ccc(F)cc1Cl | -8.7% | -15.6%
CCOC(=O)c1sc2nc(C)n(CC(=O)Nc3cccc(Cl)c3)c(=O)c2c1C | -12.7% | -11.9%
Cc1ccc(C2c3[nH]c4ccccc4c3CCN2C(=O)Nc2ccc(C)c(C)c2)cc1 (stereo not given) | -10.3% | 1.9%
Cc1cccc(NC(=O)Cn2nnc(-c3nc(-c4ccncc4)no3)c2N)c1 | ? | -17.5%
N#CC1(NC(=O)CNc2cccc(F)c2)CCCC1 | 18.9% | 12.5%
Cc1ccc(NC(=O)CC(O)(c2nccn2C)C(F)(F)F)cc1C (stereo not given) | 32.7%[activator] | 3.7%
Cc1ccc(-c2cc(C(=O)O)c3ccc(C)c(C)c3n2)cc1 | -2.0% | 14.0%
CCCNc1nc(NCc2ccccc2OC)c2cnn(C)c2n1 | -17.3% | -24.1%
CC1(C)CC(NC(=O)COc2ccc3ccc(=O)oc3c2)CC(C)(C)N1 | -0.4% | -3.5%
Cc1ccc(N2CCN(C(=O)c3c(C)oc4ncn(C)c(=O)c34)CC2)c(C)c1 | 5.6% | -3.4%
Cc1ccc2c(c1)cc1c(=O)n(Cc3cccc(Cl)c3)nc(C)n12 | -13.9% | -5.5%
O=C(CCC(=O)c1ccc(Cl)cc1)OCC(=O)c1ccc(OCc2ccccc2)cc1 | 115.4%[activator] | 5.1%
CC1=NN(C(=O)CSCc2ccccc2Cl)C(O)(C(F)(F)F)C1 (stereo not given) | 9.2% | 52.7%[activator]
CC1CCN(c2nc3c(-c4cccc(Br)c4)nnn3c3ccccc23)CC1 | -7.5% | -4.2%
COc1ccccc1N1CCN(C(=O)c2ccccc2NC(=O)Cn2c(C)cc(C)c(C#N)c2=O)CC1 | -3.4% | -5.0%
COc1ccc(Cl)cc1C(=O)NCCS(=O)(=O)N1CCN(c2ccccc2OC)CC1 | ? | 4.5%
Cc1ccc(C(=O)CCN2CCCCCC2)cc1 | 3.1% | -4.4%
Cc1cc(C)c(NC(=O)COC(=O)c2cccc(C)c2O)c(Cl)c1 | 10.2% | -1.7%
CCOc1ccccc1NC(=O)CSC1=Nc2ccccc2C2=NC(CC(=O)NC3CCCCC3)C(=O)N12 (stereo not given) | -12.2% | 52.4%[activator]
Cc1ccc2c(CN(Cc3cccs3)C(C)C)cc(=O)oc2c1 | 8.4% | 32.4%[activator]
Cc1ccc(C(=O)N2CCCC(C)C2)cc1S(=O)(=O)N1CCCCC1 (stereo not given) | 43.6%[activator] | 96.2%[activator]
O=C(Nc1ccc(F)cc1F)N1CCN(c2cc(=O)n3nc(-c4ccco4)sc3n2)CC1 | 26.1% | -0.8%
O=C(COc1ccccc1F)Nc1ccc(OCc2cc(=O)n3ccccc3n2)cc1 | 37.5%[activator] | 5.2%

Rewritten with values under each structure: seven of the compounds above
Value order: 2A firefly	2A Renilla
O=C(CCC(=O)c1ccc(Cl)cc1)OCC(=O)c1ccc(OCc2ccccc2)cc1
 : 115.4%[activator]	5.1%
Cc1c(Cl)cccc1NC(=O)CC(c1ccc(F)cc1)N1Cc2ccccc2C1=O (stereo not given)
 : 0.0%	133.2%[activator]
COc1ccc(Cl)cc1-c1nc(SC(C)C(=O)NC2CCCCC2)n[nH]1 (stereo not given)
 : -8.2%	4.2%
Cc1ccc(C(=O)CCN2CCCCCC2)cc1
 : 3.1%	-4.4%
O=C(NCc1ccc(F)cc1)c1nc(Cc2c[nH]c3ccccc23)no1
 : -7.5%	11.1%
CCOc1ccccc1NC(=O)c1nn(-c2ccc(OC)cc2)c(=O)c2c1c1ccccc1n2C
 : 24.0%	-12.1%
CCCCC12CN3CC(C)(CN(C1)C3c1ccc(OCc3ccccc3)cc1)C2=O (stereo not given)
 : -10.4%	-9.0%
